PINK1 expr mod = A Quantitative High throughput Screen to Identify Chemical Modulators of PINK1 Expression; PINK1 immunofluorescence, high-content cytometry, 24 h; Potency, µM (top dose mostly 76.6 µM), inactives show top-dose activation (PINK1 increase), usual class: activators; 410,000 compounds, 0.2% hits; active = well fitted activation curve with a large enough effect; inconclusive = small, poorly fitted or top-dose-only effect; inactive = flat fitted curve, though single readings scatter; cell line not stated here;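 note: potency is the fitted concentration of half-maximal effect; % of control where 0% means no effect; nearly all actives have a fitted effect of over 65% in size; a mitochondrial uncoupler was the plate control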
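Decision-based qHTS: stable cells, 24 h exposure to five compound concentrations, CCCP as control. Fixed cells stained for PINK1 plus nuclear, mitochondrial and cell markers, cytometer read.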
TRPML1 inh = qHTS for Inhibitors of the Human Mucolipin Transient Receptor Potential 1 (TRPML1); 390,000 compounds, 0.02% hits; TRPML1-inducible cells, Ca2+ dye fluorescence, FDSS; active compounds read low; inhibition of EC80 agonist-evoked calcium signal; activity change, negative = inhibition, % (test concentration not listed); in the data active means activity change below about -50%; inconclusive means about -30% to -50%; inactive means above about -30%;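 note: stimulus is agonist 54-4 at its EC80 concentration; % is set by controls: 0 for no effect and ±100 for the full control effect; compound concentration not given in the record; the text of the record puts the active cut at -80%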
Target sequence (Q9GZU1 whole entry, looked up): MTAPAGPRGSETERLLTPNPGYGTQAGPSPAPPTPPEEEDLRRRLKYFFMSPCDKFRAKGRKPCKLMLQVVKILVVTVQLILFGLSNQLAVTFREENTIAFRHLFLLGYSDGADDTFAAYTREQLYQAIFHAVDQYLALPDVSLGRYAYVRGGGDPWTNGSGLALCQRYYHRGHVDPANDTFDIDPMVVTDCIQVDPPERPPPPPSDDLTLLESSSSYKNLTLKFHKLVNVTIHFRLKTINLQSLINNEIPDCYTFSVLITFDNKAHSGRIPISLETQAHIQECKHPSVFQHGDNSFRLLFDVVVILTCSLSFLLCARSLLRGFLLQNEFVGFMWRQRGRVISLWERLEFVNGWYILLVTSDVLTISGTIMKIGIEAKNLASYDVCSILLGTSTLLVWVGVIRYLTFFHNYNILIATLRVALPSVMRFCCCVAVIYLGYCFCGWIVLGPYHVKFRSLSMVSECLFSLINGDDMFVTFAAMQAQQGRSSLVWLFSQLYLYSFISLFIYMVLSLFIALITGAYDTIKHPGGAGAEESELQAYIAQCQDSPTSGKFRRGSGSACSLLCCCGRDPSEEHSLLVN
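Calcium fluorescence in TRPML1-DL cells induced overnight with Tet: a 110 s read after compound pin addition, then a 110 s antagonist read after challenge with 54-4 at 4 uM final (EC80).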
D2 ag = Beta-Arrestin HTS for Positive Allosteric Modulators of the Human D2 Dopamine Receptor: Agonists | D(2) dopamine receptor (Homo sapiens), P14416 | DiscoveRx PathHunter D2 beta-arrestin, luminescence, 90 min; 100% = 57 uM dopamine signal | activation, % (concentration not given with the values) | 360,000 compounds, 0.084% hits | AID 624465, 2012; in the data active = activation above about 40%; inconclusive = about 15% to 40%; inactive = below about 15%; note: the text of the record calls up to 30% inactive
Target sequence (P14416 whole entry, looked up): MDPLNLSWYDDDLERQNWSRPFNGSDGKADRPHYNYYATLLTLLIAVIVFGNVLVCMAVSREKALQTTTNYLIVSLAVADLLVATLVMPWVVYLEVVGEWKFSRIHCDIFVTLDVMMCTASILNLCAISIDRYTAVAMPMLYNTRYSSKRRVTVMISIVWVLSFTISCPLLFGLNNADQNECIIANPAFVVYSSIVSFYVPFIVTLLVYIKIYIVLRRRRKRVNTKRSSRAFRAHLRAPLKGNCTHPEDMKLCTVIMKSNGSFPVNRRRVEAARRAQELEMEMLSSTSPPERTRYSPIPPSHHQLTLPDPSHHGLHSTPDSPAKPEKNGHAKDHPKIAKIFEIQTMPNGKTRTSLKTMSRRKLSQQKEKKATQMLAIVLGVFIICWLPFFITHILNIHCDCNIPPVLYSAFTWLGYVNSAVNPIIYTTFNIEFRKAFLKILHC
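DiscoveRx PathHunter D2 beta-arrestin cells (2,100/well) attached overnight, then compound-stimulated 90 min at 37 C in HBSS/10 mM HEPES/0.1% Tween-20 buffer; beta-galactosidase complementation read by luminescence after 1 h at ambient temperature. Dopamine 57 uM final (EC100) as control.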
D2 PAM = Beta-Arrestin HTS for Positive Allosteric Modulators of the Human D2 Dopamine Receptor: Potentiators. 360,000 compounds, 0.23% hits. potentiation, % (test concentration not listed). AID 624464, 2012. DiscoveRx D2 beta-arrestin cells, luminescence, 90 min; 100% = 57 uM dopamine signal; active = potentiation of 50% or more; inconclusive = 30% to 50%; inactive = 30% or less;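 note: compound concentration not given in the record; tested on top of an EC20 dose of dopamine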
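D2 cells co-treated with compound plus 50 nM dopamine (EC20) for 90 min at 37 deg C to detect potentiation. Beta-arrestin recruitment was read as enzyme-fragment luminescence after 1 h at ambient temperature. Full response was set by 57 uM dopamine.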
Six1-Eya2 blk = qHTS Assay for Inhibitors of the Six1/Eya2 Interaction; Homeobox protein SIX1 (Homo sapiens) + Protein phosphatase EYA2 (Homo sapiens), …; AlphaScreen GST-Six1/His-Eya2 binding, biochemical; active compounds read low; control for the full effect not named in the record; activity change, % (no concentration beside the values); 360,000 compounds, 0.56% hits; in the data active = activity change below about -65%; inconclusive = about -30% to -65%; inactive = above about -30%; note: % is set by controls: 0 for no effect and ±100 for the full control effect
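AlphaScreen luminescence read after one hour at 37 °C in darkness. Pin-transferred compounds met GST-Six1 and His-Eya2 protein (5X stock 250 nM/500 nM) plus glutathione donor and Ni-chelate acceptor beads (5X, 50 ug/mL).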
TRPML1 agonist = qHTS for Agonists of the Human Mucolipin Transient Receptor Potential 1 (TRPML1); Mucolipin-1 (Homo sapiens), Q9GZU1; TRPML1-expressing cells, Ca2+ dye fluorescence, FDSS; host cell line not named in the record; reference of the full effect not given here; activation, % (test concentration not listed); 410,000 compounds, 0.12% hits; in the data active = activation above about 50%; inconclusive = about 30% to 50%; inactive = below about 30%; note: 0% is about no effect; the text of the record puts the active cut at 80%
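Agonist activity was taken from a 110 s kinetic Ca2+ dye read on the FDSS after pinning compounds onto TRPML1-DL cells. The cells were seeded at 1,500/well with Tet inducer, incubated about 16 h, then dye-loaded at room temperature.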
* marks the source's active call; other numbers are inactive results; ? = inconclusive; / = not tested or not shown; & = joins results of further samples; [ ] = another dose, or the depositor's remark.

No.	SMILES	Six1-Eya2 blk	TRPML1 agonist	D2 ag	TRPML1 inh	D2 PAM	PINK1 expr mod
1	Cc1ccccc1-n1ncc2c1CC(C)(C)CC2NC(=O)CCC1=NNC(=O)CC1 (stereo not given)	5	-1.3	-0.8	24	2	1.1%
2	COc1ccc(CNC(=O)c2ccccc2NC(=O)C2=C(C)OCCS2)cc1	-5	-0.5	-1.8	10	-4	0.0%
3	O=C1CSC(=S)N1CC1CCCO1 (stereo not given)	-3	0.3	5.4	-6	?	/
4	O=C(c1cc2c(s1)-c1ccccc1OC2)N1CCN(c2ccccc2F)CC1	/	2.5	/	35	/	1.7%
5	COc1cccc(NC(=O)C(c2ccccc2)N2CCN(CC(=O)N3CCOCC3)CC2)c1 (stereo not given)	0	0.2	-3.7	-4	-13	2.9%
6	Cc1ccccc1NC1=NCC(c2ccc([N+](=O)[O-])cc2)S1 (stereo not given)	-5	1.2	-0.9	25	-23	-0.4%
7	COc1ccc(C)c2sc(N(CCCN(C)C)C(=O)c3ccc4c(c3)OCCO4)nc12	-5	-0.1	-4.4	-10	-21	?
8	O=C(NC1CC2CCC(C1)N2Cc1ccccc1)c1ccccc1Br (stereo not given)	2	/	1.0	/	-82	0.5%
9	CN(C(=O)CSC1=NC2C(N=N1)c1cc(Br)ccc1N2C)C1CCCCC1 (stereo not given)	4	-0.3	0.5	-5	-4	4.8%
10	COCCNC(=O)c1ccc2nc(CCc3ccccc3)oc2c1	/	-0.1	/	-12	/	0.2%
11	CCc1ccc2c(c1)C1(NN=C(c3ccccc3)S1)C(=O)N2 (stereo not given)	?	-0.4	-7.9	-5	-16	4.9%
12	Cc1nc(C)c(NC(=O)OC(C)C)cc1NC(=O)OC(C)C	6	-0.5	-2.7	7	-2	0.5%
13	CCN1C(=O)c2ccccc2S(=O)(=O)c2ccc(C(=O)NCc3cccnc3)cc21	-6	-0.9	-5.7	3	-11	-1.1%
14	c1ccc(-c2nc3ccccc3nc2N2CCOCC2)cc1	19	-0.3	-2.9	27	-7	3.7%
15	Cc1nc2scc(C)n2c(=O)c1S(=O)(=O)Nc1ccc(N2CCOCC2)c(Cl)c1	5	0.2&-0.7	-1.2	8&6	0	-0.7%&2.1%
16	Cn1c(N)c(C(=O)COC(=O)COc2ccc3ccccc3c2)c(=O)n(C)c1=O	-1	1.1	-0.4	37	3	0.3%
17	O=C(CCn1c(=S)oc2ccccc21)Nc1ccccc1F	9	-0.5	-5.8	14	-7	6.5%
18	COc1cccc(/C=N/NC(=O)c2c(C)nc3ccc(Cl)cn23)c1OC	2	0.2	-5.3	16	-5	1.3%
19	CCc1nn(CC(=O)NCCCN2CCN(C)CC2)c(=O)c2cc3occc3n12	3	0.4&-0.5	-1.0	1&7	-4	1.0%&1.1%
20	O=C(N/N=C/c1c[nH]c2ccccc12)c1ccncc1	2	0.4	2.7	-3	-9	-1.2%
21	CCCS(=O)(=O)c1cscc1NC(=O)c1c(-c2c(F)cccc2Cl)noc1C	13	1.0	-5.1	7	2	0.3%
22	CCC(C)(C)n1nnnc1C(c1ccc(C)cc1)N1CCSCC1 (stereo not given)	1	2.1	-3.2	18	-12	1.8%
23	CN1CCN(C2=C(Cl)C(=O)c3ccccc3C2=O)CC1	-27	0.3	10	14	-1	-2.0%
24	CC1=C(c2ccc(C)cc2)S(=O)(=O)N(Cc2ccc(C(=O)NCc3ccccc3)cc2)C1=O	/	1.2	/	7	/	3.7%
25	CC(=O)NC(Cc1cc(C)ccc1C)C(=O)N1CCN(C(=O)Nc2ccc(C(C)=O)cc2)CC1 (stereo not given)	1	0.1	-1.1	2	-4	7.9%[38.3 µM]

(listing goes on)
No.	SMILES	Six1-Eya2 blk	TRPML1 agonist	D2 ag	TRPML1 inh	D2 PAM	PINK1 expr mod
26	O=NN(CCCl)C(=O)NCCc1cccc[n+]1[O-]	0	-0.1	-1.9	-9	-6	-0.1%
27	CCOC(=O)C1CCCN(S(=O)(=O)c2cc(Br)cc3c2N(C(C)=O)CC3)C1 (stereo not given)	-3	1.2&-0.8	0.3	-10&-4	-6	-1.7%&-0.8%
28	C=CCN1C(=O)c2ccc(C(=O)OCC(=O)N(C)C3CCCCC3)cc2C1=O	6	0.1	-6.8	2	-6	1.0%
29	COc1ccccc1CCNC(=O)Cn1ccc2cc(S(=O)(=O)N3CCCCCC3)ccc21	/	2.0	/	-1	/	1.1%
30	CC1(c2cccc(Br)c2)NC(=O)N(CC(=O)N2CCc3ccccc32)C1=O (stereo not given)	24	0.3	1.9	14	-18	1.3%
31	CC(=O)Nc1ccc(NC(=O)C2CCCN2/C=C/C(=O)C(F)(F)F)cc1 (stereo not given)	8	1.1	0.3	17	1	3.6%
32	Cc1ccc(-n2c(O)c(/C=N/NC(=O)C3COc4ccccc4O3)c3ccccc3c2=O)cc1 (stereo not given)	-21	5.4	-7.4	7	10	-1.0%
33	O=C1[C@H](Cc2ccccc2)NCCCC[C@@H](c2ccco2)N1Cc1ccccc1	-9	-0.4&-0.6	-2.9	51	-8	1.9%
34	Cc1ccc(Cl)cc1NC(=O)C(C)n1nnc2sc3c(c2c1=O)CCCC3 (stereo not given)	/	2.2	/	-14	/	3.1%
35	Cc1ccc(C(=O)OCC(=O)NC2CCCC2)cc1	2	-0.8	-2.7	9	-1	4.6%
36	O=C(Oc1cccc2c(=O)[nH]ccc12)c1ccccc1	-2	0.6	-2.7	-6	1	4.8%
37	O=C1C(c2ccnc3ccccc23)=C(O)c2ccccc21	-9	-0.2	-3.0	-2	-3	0.2%
38	COc1cccc(C(NC(C)=O)c2nc(-c3cccc(C(=O)O)c3)cs2)c1 (stereo not given)	-11	-0.3	-5.7	/	-3	0.7%
39	CCN1C(=O)c2ccccc2S(=O)(=O)c2ccc(C(=O)NCc3ccc(F)cc3)cc21	/	0.2	/	11	/	-0.1%
40	Cc1ccsc1C(=O)Nc1nnc(-c2ccco2)o1	-22	-0.2	-1.8	7	-2	/
41	COc1ccc(-c2nc(-c3ccccc3)c(-c3cccs3)[nH]2)cc1OC	?	0.6	-3.5	0	-21	1.2%[38.3 µM]
42	COc1ccc(/C=C/C(=O)O)cc1S(=O)(=O)N1CCC(C)CC1	1	/	-1.5	/	-5	0.1%
43	O=C(CNS(=O)(=O)c1c(F)cc(F)cc1Br)OCC(=O)N1CCCC1=O	0	1.1	-4.3	-5	-33	0.5%
44	CCOC(=O)c1c(C)[nH]c(C(=O)CSc2ccccc2)c1C	-1	0.7	6.3	7	-29	8.2%
45	Cc1c(C(=O)NCCC2=CCCCC2)oc2ccc(S(=O)(=O)N3CCOCC3)cc12	-1	1.1	-1.1	8	19	-0.4%
46	O=C(c1cc2cc(Br)cc(Br)c2oc1=O)N1CCCC1	5	0.0	-3.0	-9	-9	0.5%[38.3 µM]
47	COc1ccc(CCN2C(=O)C(O)=C(C(C)=O)C2c2ccccc2OC)cc1OC (stereo not given)	6	-0.4	1.1	-1	5	/
48	COC(=O)C(c1ccccc1)N(Cc1cccc(CN(C(C(=O)OC)c2ccccc2)S(C)(=O)=O)c1)S(C)(=O)=O (stereo not given)	-7	-0.1	0.9	-1	-33	0.6%
49	C/C(=N/NC(=O)c1ccc2c(c1)OCO2)c1ccc(NC(=O)c2ccc(F)cc2)cc1	6	-0.8	2.8	-4	1	5.0%
50	O=C(/C=C/c1c(Cl)nc2ccccn12)N1CCN(c2ccc(F)cc2)CC1	-8	1.8	1.2	1	-18	-0.7%

Additional compounds follow:
No.	SMILES	Six1-Eya2 blk	TRPML1 agonist	D2 ag	TRPML1 inh	D2 PAM	PINK1 expr mod
51	C=CCN(C(=O)c1csnn1)C(C(=O)NC(C)(C)C)c1ccncc1 (stereo not given)	5	1.1	-1.7	17	-2	-0.6%
52	CCOc1ccccc1CN1CCN(Cc2nc3ccccc3s2)CC1CCO (stereo not given)	-4	-0.5	-1.4	3	-3	-0.5%
53	Cc1nc2ccccc2c(C)c1C(=O)c1ccccc1	8	-0.5	-1.0	-4	-9	1.2%
54	O=C(c1ccc(OC2CCN(Cc3ccc(F)cc3)CC2)cc1)N1CCCC1	-1	-0.7	-7.3	5	-18	-2.1%
55	COC(=O)Cc1cc(=O)n2[nH]c(SC)nc2n1	-1	0.2	-5.5	8	-4	1.1%
56	COc1ccc(-c2nnc(NC(=O)C3=COCCO3)o2)cc1	-29	-0.1	-0.4	-3	-1	-0.6%
57	C=CCN1C=CC(=O)[C@@H](OC(=O)Nc2ccc(Br)cc2)[C@H]1c1ccccc1Br	-11	0.1	0.7	-7	-2	7.8%
58	CC1CCCCC1NC(=O)C1CCC(CNS(=O)(=O)c2cccc3cccnc23)CC1 (stereo not given)	9	2.2	-1.1	13	-1	1.6%
59	COc1ccc(NC(=O)C(=O)NNC(=O)COc2ccc(OC)cc2)cc1	5	-0.2	-0.7	0	-5	-1.1%
60	CCN1CCN(c2ncc3c(n2)CCN(Cc2cc(Br)cs2)C3)CC1	/	-0.3	/	-8	/	2.3%
61	Cc1cc(C)nc(NC(=S)NC(=O)c2ccccc2F)n1	-1	-0.1	-4.2	6	-6	-1.7%

Copied from the list.
D2 ag with compound 33 = -2.9
TRPML1 inh with compound 29 = -1

Compound profiles (already shown).
COC(=O)Cc1cc(=O)n2[nH]c(SC)nc2n1 as listed: Six1-Eya2 blk: -1; TRPML1 agonist: 0.2; D2 ag: -5.5; TRPML1 inh: 8; D2 PAM: -4; PINK1 expr mod: 1.1%
C=CCN1C=CC(=O)[C@@H](OC(=O)Nc2ccc(Br)cc2)[C@H]1c1ccccc1Br as listed: Six1-Eya2 blk: -11; TRPML1 agonist: 0.1; D2 ag: 0.7; TRPML1 inh: -7; D2 PAM: -2; PINK1 expr mod: 7.8%

Assay outcomes deposited in PubChem by National Center for Advancing Translational Sciences (NCATS).
